# High-throughput results: PubChem BioAssay, National Center for Advancing Translational Sciences (NCATS)
# Cruzain inh noDet = blocks cruzain activity in detergent-free assay. P25779. purified cruzain, Z-FR-AMC fluorescence, no detergent. Potency, µM, without a hit: max response, negative = inhibition, usual class: inhibitors. hit rate 2.3% among 200,000;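 further: plate controls were enzyme without inhibitor for no effect and buffer without enzyme for full effect; nearly all actives have a fitted effect of over 40% in size; top concentration of the series not given in the record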
# Target sequence (P25779 123-467 limits assumed): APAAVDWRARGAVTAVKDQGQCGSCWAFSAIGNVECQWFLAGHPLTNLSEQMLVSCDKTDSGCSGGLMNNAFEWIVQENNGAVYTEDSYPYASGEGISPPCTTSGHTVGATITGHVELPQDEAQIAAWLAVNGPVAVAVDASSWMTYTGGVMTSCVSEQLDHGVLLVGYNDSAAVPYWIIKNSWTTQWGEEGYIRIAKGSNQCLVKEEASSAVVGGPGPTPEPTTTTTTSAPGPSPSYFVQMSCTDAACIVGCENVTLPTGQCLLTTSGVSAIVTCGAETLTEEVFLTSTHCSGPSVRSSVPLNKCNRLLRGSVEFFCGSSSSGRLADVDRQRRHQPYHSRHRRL
#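 Detergent-free condition (0.00005% Triton X-100) in acetate buffer pH 5.5 with DTT. 1.5 nM enzyme and compound were pre-mixed 15 min, then 2 uM Z-FR-AMC substrate added; reaction progress from fluorescence change between first and third reads (60 s).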
# NS1 inh = blocks influenza NS1 protein function; S. cerevisiae slowed by influenza A NS1, growth recovery by OD600; Potency, µM (doses to about 46.1 µM), for the others: top-dose activity, positive = more growth; hit rate 0.4% among 270,000; AID 2326; active means well fitted rising curve with a large enough effect; inconclusive means small, poorly fitted or top-dose-only effect; inactive means no such curve, though single readings can be large or run the other way; further: nearly all actives have a fitted effect of over 50% in size
#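 A cell-based growth assay was used: compounds that relieve NS1-induced slow growth of budding yeast raise OD600. Assay medium was yeast nitrogen base with ammonium sulphate and -URA supplement, pH 6.0, with 2% galactose.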
# Marburg entry inh = inhibitors of Marburg virus binding or cell entry; Marburg virus pseudotyped entry inhibition, cell reporter; control for the full effect not named in the record; about a third of the inactives were read at about 46 µM; Potency, µM (top dose mostly 37.8 µM), for the others: at the highest dose activity change, negative = inhibition, usual class: inhibitors; hit rate 1.8% among 300,000; AID 540276; active = well fitted inhibition curve with a large enough effect; inconclusive = small, poorly fitted or top-dose-only effect, or effect the other way; inactive = flat fitted curve, though single readings scatter; tested in HEK293 cells; about a fifth of its hits are not listed in these tables; further: on the % scale 0 is the no-effect control and ±100 the full control effect; luciferase read-out
# Cruzain Triton = cruzain (T. cruzi) inhibition with detergent | AID 1478 | purified cruzain, Z-FR-AMC fluorescence, 0.01% Triton | hit rate 0.43% among 200,000 | P25779 | Potency, µM, for inactives: max response, negative = inhibition, hits mostly inhibitors;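 further: plate controls were neutral wells for no effect and buffer without enzyme for full effect; nearly all actives have a fitted effect of over 40% in size; top concentration of the series not given in the record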
#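 Detergent-containing arm of a paired screen for aggregation-based inhibition: 0.01% Triton X-100 present. Cruzain at 1.5 nM cleaved 2 uM Z-FR-AMC at pH 5.5 with 5 mM DTT; AMC fluorescence gain over 60 s measured activity.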
# Lassa entry inh = blocks Lassa virus binding to or entry into cells; Lassa virus pseudotype entry inhibition, cell reporter; control for the full effect not named in the record; Potency, µM (titrated, usually from 37.9 µM), inactives show at the top dose activity change, negative = inhibition, most hits filed as inhibitors; hit rate 1.2% among 300,000; AID 540256; active means well fitted inhibition curve with a large enough effect; inconclusive means small, poorly fitted or top-dose-only effect, or effect the other way; inactive means flat fitted curve, though single readings scatter; tested in HEK293 cells; further: on the % scale 0 is the no-effect control and ±100 the full control effect; nearly all actives have a fitted effect of over 50% in size; luciferase read-out
# RE007 growth inh = less growth of the S. pombe RE007 Vpr strain | S. pombe RE007 Vpr strain, BacTiter-Glo ATP luminescence, 24 h; control for the full effect not named in the record | Potency, µM (series often up to 92.2 µM), without a hit: top-dose activity change, negative = less growth | hit rate 0.21% among 360,000; active = well fitted falling curve with a large enough effect; inconclusive = small, poorly fitted or top-dose-only effect; inactive = no such curve, though single readings can be large or run the other way;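 further: on the % scale 0 is the no-effect control and ±100 the full control effect; nearly all actives have a fitted effect of over 50% in size; the assay follows cell death caused by Vpr and the record does not say whether a fall means rescue or toxicity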
#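 Fission yeast RE007 carrying one integrated HIV-1 vpr copy, seeded at OD 0.01 in PMG+AL medium with 23 nL pinned compound. Grown 24 h at 30 degrees; viability read by BacTiter-Glo luminescence after 5 min.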
# SARS PLP yeast = SARS-CoV PLP inhibition in yeast; S. cerevisiae expressing SARS-CoV PLpro, growth rescue; control for the full effect not named in the record; Potency, µM (top dose mostly 32.9 µM), inactives show top-dose activity, positive = growth rescue; hit rate 0.19% among 330,000; active means well fitted rising curve with a large enough effect; inconclusive means small, poorly fitted or top-dose-only effect; inactive means no such curve, though single readings can be large or run the other way; further: 0% is about no effect; nearly all actives have a fitted effect of over 55% in size; growth read by luminescence after 48 h
# 2A StopGo = lowers the luciferase signal of an FMDV 2A StopGo reporter | human cells with a luciferase reporter of 2A StopGo recoding; control for the full effect not named in the record | Potency, µM (highest dose often 57.9 µM), for the others: at the highest dose signal change, negative = less light | hit rate 1.2% among 410,000; active = well fitted falling curve with a large enough effect; inconclusive = small, poorly fitted or top-dose-only effect; inactive = no such curve, though single readings can be large or run the other way; tested in HEK293T cells; further: on the % scale 0 is the no-effect control and ±100 the full control effect; nearly all actives have a fitted effect of over 45% in size; luciferase light after 4 h
# Numbers without * were called inactive; ? = inconclusive; . = not tested or not shown; & = joins results of further samples; [ ] = another dose, or the depositor's remark. Unless noted, the call rests on the fitted dose curve; in most records, active means well fitted curve in the direction sought with a large enough effect; inconclusive means small, poorly fitted or top-dose-only effect, or another doubt; inactive means no such curve, though single readings can be large; an effect the other way counts as inactive or inconclusive. Potency means the concentration at half of the fitted maximal effect. Compounds as they come. About 4.5% of those tested had a hit in this group.
SMILES,Cruzain inh noDet,NS1 inh,Marburg entry inh,Cruzain Triton,Lassa entry inh,RE007 growth inh,SARS PLP yeast,2A StopGo
CCCSc1nnc2c(n1)OC(c1cccn1C)N(C(C)=O)c1ccccc1-2 (stereo not given),8.2%,4.5%,0.7%[46.1 µM],2.9%,-0.1%,1.6%,8.1%,-13.1%
CSc1ccc(S(=O)(=O)N2CCC(C(=O)NC3CC3)CC2)cc1,.,-2.5%,3.0%[46.1 µM],.,6.2%,2.3%,1.5%,-13.9%
Nc1nc2ccc(-c3nc4ccccc4o3)cc2s1,?,-10.9%,?,-4.8%,?,-2.1%,-69.5%,-19.4%
OCCN(CCO)Cc1ccc(Br)cc1,3.9%,6.1%,?,-0.8%,-2.1%,8.5%,0.5%,-1.5%
Cc1cc(C)n2c(=S)[nH]nc2n1,-5.6%,2.8%,-1.8%,0.0%,-6.0%,5.3%,12.3%,-20.8%
CCCC1NC(=S)NC(C)=C1C(C)=O (stereo not given),.,.,5.4%,.,-0.5%,3.4%,-0.5%,-10.1%
COc1ccc(CCNC(=O)c2ccc(Cn3c(=O)c4ccccc4n(Cc4cccc(Cl)c4)c3=O)cc2)cc1OC,-22.3%,.,?,-2.1%,-29.0%[46.1 µM],.,.,-16.8%
Cc1c(C(=O)N2CCC(C)CC2)c(S(=O)(=O)Nc2cccc(C#N)c2)c(C)n1C,3.6%,.,.,-0.9%,21.1%[46.1 µM],.,.,53.3%[activator]
O=C(NC1(C(F)(F)F)C(=O)Nc2c1c(=O)[nH]c(=O)n2-c1ccc(F)cc1)c1cccnc1 (stereo not given),-5.6%,24.5%,-11.1%,5.6%,-0.9%,5.8%[3.69 µM],0.1%,-4.5%
CCOc1cc(NS(=O)(=O)CC)c(OCC)cc1NC(=O)c1ccco1,-4.2%,-7.3%,?,-1.3%,1.4%,0.6%,-0.4%,-6.9%
C/C(=N\Nc1cc(C)nc(-c2ccccc2O)n1)c1ccccc1O,.,2.5%,.,.,.,-13.5%,-0.4%,-20.6%
Cc1nc(N2CCC(C)CC2)c2c(C)c(C(=O)Nc3cc(F)ccc3C)sc2n1,.,.,8.0%[46.1 µM],.,19.3%,11.9%,0.2%,-29.6%
COc1ccc(NC(=O)c2cc3ccccc3cc2O)cc1,.,0.4%,1.12µM*,.,-37.7%,73.1%,0.7%,-1.1%
CC1CCCC(C)N1C(=O)Cn1cc(C#N)c2ccccc21 (stereo not given),.,4.0%,-12.2%[46.1 µM],.,7.0%[46.1 µM],9.6%,0.3%,-9.6%
CCN(CC(=O)NCc1ccc(F)cc1)C(=O)COc1ccc2ccccc2c1,2.4%,-2.2%,?,8.4%,2.0%,-14.5%,15.0%,-10.3%
CC(=O)Nc1ccc(NC(=O)c2cc3c(=O)n(Cc4cccnc4)ccc3nc2C)cc1,-2.5%,.,.,-5.0%,-22.0%[46.1 µM],.,.,-8.4%
CC(OC(=O)CC1CCCCC1)C(=O)Nc1ccc(S(N)(=O)=O)cc1 (stereo not given),.,.,-6.3%[46.1 µM],.,-15.3%,2.0%,.,2.9%
O=C(Nc1ccc(Cl)cc1C(=O)Nc1ccncc1)c1ccco1,1.0%,5.0%,?,-1.0%,-13.3%,-11.2%,4.0%,-19.8%
Cc1c(OCC(=O)NCCN2CCOCC2)ccc2c1oc(=O)c1ccccc12,.,2.9%,.,.,.,6.9%,?,-20.5%
CCC(=O)N1c2ccccc2CC1C(=O)NCCc1ccc(C)cc1 (stereo not given),-0.8%,.,.,0.5%,-3.0%[46.1 µM],.,.,10.4%
OC(COc1ccc2ccccc2c1)Cn1ccnc1 (stereo not given),?,-5.6%,15.0%,-0.4%,-12.6%,6.9%,25.1%,.
COc1cccc(NC(=O)c2nnn(CC(=O)Nc3cc(C)cc(C)c3)c2N)c1,.,-2.5%,.,.,.,0.3%,-1.5%,-11.3%
N#C/C(=C\c1ccccc1)c1nc(-c2cc3c(ccc4ccccc43)oc2=O)cs1,8.2%,.,.,2.4%,4.1%[46.1 µM],.,.,-5.7%
COCCn1ccc(O)c(Cc2ccc(Cl)cc2)c1=O,-2.9%,-5.3%,7.4%,0.1%,-1.3%,1.4%,3.8%,-11.0%
CC(=O)OC1C(OC(C)=O)N(C(C)=O)C(=O)N1C(C)=O (stereo not given),1.2%,-2.1%,2.7%,-0.2%,1.6%,2.3%,1.9%,-15.8%
Oc1cnn(-c2ccccc2)c1,-7.9%,4.6%,?,-2.3%,13.5%,-1.0%,0.1%,5.1%
CCn1c(C)c(C(C)=O)cc(C#N)c1=O,.,0.4%,.,.,.,4.4%,0.9%,9.4%
COc1ccc(-c2nnc(SCC(=O)Nc3ccc(C(C)=O)cc3)nc2-c2ccc(OC)cc2)cc1,7.5%,.,.,-0.4%,16.5%[46.1 µM],.,.,31.8%[activator]
CCOc1ccc2nc(COC(=O)c3ccco3)c(C(C)=O)[n+]([O-])c2c1,9.5%,-8.8%,-1.2%,-0.9%,4.6%,3.2%,-0.3%,-8.1%
O=C(Nc1ccc(Cl)cc1)c1cc(S(=O)(=O)Nc2ccccn2)ccc1Cl,.,2.8%,-16.0%[46.1 µM],.,-9.4%,-17.6%,1.8%,40.6%[activator]
O=C(CS(=O)(=O)c1ccc(Cl)cc1)Nc1nc2ccc(Br)cc2s1,7.94µM*,.,.,-2.9%,17.6%[46.1 µM],.,.,-14.5%
Cc1nnc(NC(=O)c2ccc(C)c(S(=O)(=O)N3CCOCC3)c2)s1,1.1%,-0.4%,15.4%,0.4%,?,0.3%,.,.
CCCOc1ccc(-c2c(C(=O)N/N=C/c3ccsc3)nnn2-c2nonc2N)cc1,.,-7.3%,.,.,.,6.4%,?,-14.2%
COC(=O)C1=C(C)NC(=S)NC1c1ccc(OCC(=O)N2CC(C)OC(C)C2)c(OC)c1 (stereo not given),.,.,-7.8%,.,2.6%,-16.5%,-2.2%,-17.9%
Cc1ccc(C)c(OCCSc2nnc(C)c(=O)[nH]2)c1,.,.,15.3%[46.1 µM],.,.,28.9%,-2.2%,-0.3%
O=C(CCn1c(=O)c2ccccc2n(Cc2ccc(Cl)cc2)c1=O)NCc1ccc2c(c1)OCO2,0.2%,.,-2.9%[46.1 µM],-0.7%,0.5%[46.1 µM],.,.,28.1%
O=C(CSc1ccccn1)Nc1ccc2c(c1)CCC2,.,.,?,.,10.8%,-13.6%,0.2%,19.1%
COc1ccc(C(=O)Nc2cc(C(F)(F)F)ccc2-n2cncn2)cc1,-5.3%,-7.2%,0.8%,4.1%,-1.3%,2.2%,6.5%,-10.4%
Cc1cccc(NS(=O)(=O)c2ccc3nc(-c4ccccc4)[nH]c3c2)c1C,?,9.2%,-3.6%[46.1 µM],7.7%&-1.4%,3.7%[46.1 µM],-0.8%,7.1%,24.5%&-5.5%
O=C1CCCN1CC(O)CS(=O)(=O)c1ccc(Cl)cc1 (stereo not given),6.7%,3.9%,11.8%,1.5%,1.5%,-3.0%,3.2%,12.1%

# Only Cruzain inh noDet, Marburg entry inh and NS1 inh, for two of the compounds above:
canonical_smiles	Cruzain inh noDet	Marburg entry inh	NS1 inh
COc1ccc(C(=O)Nc2cc(C(F)(F)F)ccc2-n2cncn2)cc1	-5.3%	0.8%	-7.2%
Cc1cccc(NS(=O)(=O)c2ccc3nc(-c4ccccc4)[nH]c3c2)c1C	?	-3.6%[46.1 µM]	9.2%

# The results go on.
SMILES,Cruzain inh noDet,NS1 inh,Marburg entry inh,Cruzain Triton,Lassa entry inh,RE007 growth inh,SARS PLP yeast,2A StopGo
CCOc1ccccc1OCCn1ncc2ccc(OC)c(OC)c2c1=O,-8.4%,-9.2%,-19.2%[46.1 µM],6.7%,16.0%,10.4%,10.5%,32.9%[activator]
Cc1cc(=O)oc2cc(OCC(=O)Nc3ccc(N4CCC(C)CC4)cc3)ccc12,.,2.2%,.,.,.,-8.0%,-20.1%,4.1%
Cc1nnsc1-c1c(C(=O)N2CCOCC2)c(C)nn1-c1ccc(Cl)cc1,.,-1.9%,13.3%[46.1 µM],.,-10.3%,-5.3%,0.5%,-4.0%
O=C(CSc1nnc(-c2ccccc2Br)o1)N1CCN(C(=O)c2ccco2)CC1,14.5%,-5.6%,-2.7%&2.5%,1.5%,2.4%,-9.4%,4.2%,.
CC1Sc2ccc(S(=O)(=O)N3CCC(C(=O)N(C)Cc4ccco4)CC3)cc2NC1=O (stereo not given),.,4.4%,?,.,?,0.8%,1.2%,?
CCOP(=O)(OCC)c1nc(-c2ccc(C)cc2)oc1N1CCOCC1,.,.,11.5%,.,-17.4%,-11.1%,.,-0.1%
CCCCn1c(N)c(N(Cc2ccccc2OC)C(=O)C(C)C)c(=O)[nH]c1=O,.,-19.1%,5.9%,.,-5.3%,-4.8%,-1.6%,-4.2%
Cn1nc([N+](=O)[O-])nc1Sc1cccc2cccnc12,.,1.3%,.,.,.,-9.6%,0.2%,-27.2%
O=C(NCCc1ccccn1)c1ccc2nc(Cc3ccccc3F)oc2c1,.,-25.7%,?,.,?,1.6%,-0.7%,21.0%
Cc1ccn2cc(C(=O)Nc3cccc(C(=O)NC4CC4)c3)nc2c1,.,.,?,.,?,-8.4%,4.2%,-18.8%
CC1(C)Cc2c(sc(NC(=O)Cc3ccccc3)c2C#N)CO1,.,-1.7%,3.4%[46.1 µM],.,-1.0%,4.3%,3.3%,-1.4%
COc1ccc(CCNC(=O)COC(=O)c2ccc(Br)o2)cc1OC,5.8%,-4.2%,?,8.3%,15.7%,-13.4%,-5.0%,-14.5%
COc1c(O)ccc(C2NC(=O)NC(C)=C2C(=O)Nc2ccccc2C)c1[N+](=O)[O-] (stereo not given),.,.,-14.2%[46.1 µM],.,3.7%,5.1%,-0.8%,4.9%
CN(C)c1ccc(NC(=O)CCSc2nc(-c3ccco3)cc(C(F)(F)F)n2)cc1,4.7%,.,27.7%[46.1 µM],-4.2%,2.1%[46.1 µM],.,.,36.2%[activator]
Cc1ccccc1N(CC(=O)Nc1ccc(S(=O)(=O)N2CCOCC2)cc1)S(C)(=O)=O,.,-9.9%,?,.,?,3.2%,-0.2%,-2.2%
